# Vaccinia inh = blocks a specific stage of Vaccinia orthopoxvirus infection | Vaccinia-infected cells, mCherry/Venus stage reporter fluorescence; stronger effect = lower value; some inactives read as strong as hits | activity change (mCherry), % (concentration not given with the values) | 0.01% of 89,000 active | AID 1053133;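 active = mCherry past -33% and 40 or more points under the early reporter, replicates agreeing; inconclusive = past -33% without that gap or agreement; tested in A549 cells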;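 note: scaled between vehicle wells and reference inhibitor wells; 23 nL library stock went into each well; one replicate is shown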
# Vaccinia inh Venus = further read-out of Vaccinia inh, marked with its call; activity change (Venus), %; measured here: Venus reporter, other viral stage;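 negative = less Venus signal; first of two replicates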
# The depositor's hits bear a star; ? = inconclusive; nt = not tested or not shown. The list is partial (hit frequency here may not be typical).
# Every second line gives: Vaccinia inh | Vaccinia inh Venus
- O=C(C[C@H]1C[C@H]2c3cc(NC(=O)Nc4ccc(C(F)(F)F)cc4)ccc3O[C@H]2[C@@H](CO)O1)NCCc1ccccc1
 : 6.8 | 9.8
- COc1ccc2c3c([nH]c2c1)[C@H](CO)N(C(=O)CN(C)C)CC31CN(C(=O)c2cccnc2)C1
 : 3.7 | -2.9
- O=C(C1CCCCC1)N1C[C@H]2[C@@H](c3ccccc31)[C@@H](CO)N2Cc1ccccc1Cl
 : ? | nt
- C[C@H]1CN([C@@H](C)CO)C(=O)CCCn2nncc2CO[C@H]1CN(C)C(=O)Oc1ccccc1
 : 19.7 | 14.3
- C[C@@H]1CN([C@@H](C)CO)C(=O)c2cc(C#CCN(C)C)cnc2O[C@@H]1CN(C)C(=O)Cc1ccncc1
 : 7.3 | 5.1
- COCC#Cc1cnc2c(c1)C(=O)N([C@@H](C)CO)C[C@@H](C)[C@@H](CN(C)S(C)(=O)=O)O2
 : 10.8 | 5.6
- CS(=O)(=O)N1CCCCN2[C@H](CO)[C@H](c3ccc(Br)cc3)[C@@H]2C1
 : 12.4 | -0.5
- COCC#Cc1ccc2c(c1)O[C@@H](CN(C)Cc1ccccn1)[C@H](C)CN([C@H](C)CO)S2(=O)=O
 : -2.4 | 0.0
- CCCC(=O)Nc1ccc2c(c1)OC[C@H](C)N(Cc1ccccc1)C[C@H](C)[C@@H](OC)CN(C)C2=O
 : -21.8 | -12.4
- O=C(c1ccccc1)N1CC[C@@H]2[C@H]1c1cc(C#Cc3cccnc3)ccc1N[C@@H]2CO
 : 10.9 | 4.1
- CCC(=O)Nc1ccc2c(c1)C(=O)N(C)[C@H]1CC[C@@H](CC(=O)NCc3ccccc3Cl)O[C@@H]1CO2
 : 9.7 | -0.8
- COC(=O)C[C@@H]1CC[C@@H]2[C@H](COc3ccc(NC(=O)c4ccccc4F)cc3C(=O)N2C)O1
 : 0.4 | 2.6
- CN(C)CC#Cc1ccc([C@H]2[C@H](CO)N3C(=O)CN(C(=O)Cc4ccccc4)C[C@@H]23)cc1
 : 15.7 | 8.1
- CCCNC(=O)N1CCC2(CC1)CN(Cc1cccc(F)c1)[C@H](CO)c1[nH]c3cc(OC)ccc3c12
 : 10.5 | 13.4
- COc1ccc(-c2ccc3c(c2)[C@@H]2[C@@H](CCN2S(=O)(=O)c2ccccc2F)[C@@H](CO)N3C)cc1
 : -8.1 | -9.1
- CO[C@@H]1CN(C)C(=O)c2cc(C#N)ccc2OC[C@H]2O[C@H](CC[C@H]2OC)CCN(C)C(=O)[C@H]1C
 : 17.7 | 11.2
- CCCC(=O)N1CCC2(CC1)CN(C(=O)Cc1ccccn1)[C@@H](CO)c1[nH]c3cc(OC)ccc3c12
 : 13.1 | 0.4
- C[C@@H]1CN([C@H](C)CO)C(=O)c2cc(NC(=O)Cc3cn(C)c4ccccc34)ccc2O[C@@H]1CN(C)S(C)(=O)=O
 : 2.3 | -4.9
- COc1cccc(S(=O)(=O)N2CC3(CN[C@@H](CO)c4c3c3ccc(OC)cc3n4C)C2)c1
 : 10.9 | 4.7
- CC(C)c1cn(CC[C@@H]2CC[C@@H](NS(=O)(=O)c3ccc(F)cc3)[C@@H](CO)O2)nn1
 : -2.1 | -4.6
- Cc1cc(C(=O)Nc2cccc3c2O[C@H](CN(C)Cc2ccc(C(=O)O)cc2)[C@H](C)CN([C@@H](C)CO)C3=O)n(C)n1
 : 9.7 | -0.6
- O=C(C[C@H]1CC[C@@H]2[C@H](COC[C@H](O)CN2Cc2ccccc2F)O1)NCc1ccccc1F
 : -5.6 | 4.1
- C[C@H](CO)N1C[C@H](C)[C@H](CN(C)C(=O)NC2CCCCC2)Oc2ccc(NS(C)(=O)=O)cc2CC1=O
 : 2.4 | 2.0
- C[C@@H]1CN([C@H](C)CO)C(=O)c2cc(NC(=O)Nc3ccccc3)ccc2O[C@@H](C)CCCCO[C@H]1CN(C)S(=O)(=O)c1cn(C)cn1
 : 25.9 | 14.4
- C[C@@H]1CN([C@@H](C)CO)S(=O)(=O)c2ccc(-c3ccccc3)cc2O[C@H]1CN(C)C(=O)CC1CC1
 : -17.3 | -10.0
- COc1cccc(S(=O)(=O)N2CCCCN3[C@H](CO)[C@@H](c4ccc(-c5cccnc5)cc4)[C@H]3C2)c1
 : -1.5 | -18.2
- COCC(=O)N1CC2(C1)CN(Cc1nccs1)[C@H](CO)c1c2c2ccc(OC)cc2n1C
 : 11.1 | 7.4
- CC(C)CC#Cc1ccc2c(c1)O[C@H](CN(C)Cc1ccccc1F)[C@H](C)CN([C@@H](C)CO)S2(=O)=O
 : ? | nt
- C[C@H](CO)N1C[C@H](C)[C@H](CN(C)Cc2ccccc2)Oc2cc(C#C[C@@H](C)O)ccc2S1(=O)=O
 : 3.1 | -6.1
- C[C@H](CO)N1C[C@H](C)[C@@H](CN(C)C(=O)c2ccccc2F)Oc2ncc(C#Cc3ccncc3)cc2C1=O
 : 5.8 | 4.7

# Brought forward from above: seven entries, then new ones.
# Every second line gives: Vaccinia inh | Vaccinia inh Venus
- C[C@@H]1CN([C@H](C)CO)C(=O)c2cc(NC(=O)Nc3ccccc3)ccc2O[C@@H](C)CCCCO[C@H]1CN(C)S(=O)(=O)c1cn(C)cn1
 : 25.9 | 14.4
- C[C@@H]1CN([C@@H](C)CO)S(=O)(=O)c2ccc(-c3ccccc3)cc2O[C@H]1CN(C)C(=O)CC1CC1
 : -17.3 | -10.0
- COc1cccc(S(=O)(=O)N2CCCCN3[C@H](CO)[C@@H](c4ccc(-c5cccnc5)cc4)[C@H]3C2)c1
 : -1.5 | -18.2
- COCC(=O)N1CC2(C1)CN(Cc1nccs1)[C@H](CO)c1c2c2ccc(OC)cc2n1C
 : 11.1 | 7.4
- CC(C)CC#Cc1ccc2c(c1)O[C@H](CN(C)Cc1ccccc1F)[C@H](C)CN([C@@H](C)CO)S2(=O)=O
 : ? | nt
- C[C@H](CO)N1C[C@H](C)[C@H](CN(C)Cc2ccccc2)Oc2cc(C#C[C@@H](C)O)ccc2S1(=O)=O
 : 3.1 | -6.1
- C[C@H](CO)N1C[C@H](C)[C@@H](CN(C)C(=O)c2ccccc2F)Oc2ncc(C#Cc3ccncc3)cc2C1=O
 : 5.8 | 4.7
- COc1ccc(S(=O)(=O)Nc2ccc3c(c2)C(=O)N([C@H](C)CO)C[C@H](C)[C@H](CN(C)C(=O)Nc2ccc(C(F)(F)F)cc2)OCCCC[C@H](C)O3)cc1
 : -16.2 | -17.8
- O=S(=O)(c1ccccc1F)N1CCCCN2[C@H](CO)[C@H](c3ccc(-c4ccccc4)cc3)[C@@H]2C1
 : -23.5 | -25.0
- C[C@H](CO)N1C[C@H](C)[C@@H](CN(C)C(=O)Nc2cccc3ccccc23)Oc2ccc(NC(=O)Nc3cccc4ccccc34)cc2CC1=O
 : 24.9 | 19.6
- CO[C@@H]1CN(C)C(=O)c2ccc(NS(=O)(=O)CC(F)(F)F)cc2OC[C@H](C)N(C(=O)c2ccc3c(c2)OCO3)C[C@H]1C
 : 16.9 | 5.4
- Cc1ccc(S(=O)(=O)N[C@H]2CC[C@@H](CC(=O)N3CCc4ccccc4C3)O[C@H]2CO)cc1
 : -31.1 | -26.7
- C[C@H](CO)N1C[C@H](C)[C@@H](CN(C)S(=O)(=O)c2ccc(Cl)cc2)Oc2c(NC(=O)C3CC3)cccc2C1=O
 : -9.2 | -7.6
- CC(C)NC(=O)N(C)C[C@H]1Oc2ccc(NC(=O)CCCCCC(=O)Nc3ccccc3N)cc2C(=O)N([C@@H](C)CO)C[C@@H]1C
 : 34.8 | 22.9
- C[C@@H]1CN([C@@H](C)CO)C(=O)Cc2cc(NC(=O)C3CC3)ccc2O[C@@H]1CN(C)Cc1ccc(Cl)c(Cl)c1
 : ? | nt
- Cc1noc(C)c1NC(=O)Nc1ccc2c(c1)C(=O)N([C@@H](C)CO)C[C@@H](C)[C@@H](CN(C)Cc1ccc(Oc3ccccc3)cc1)O2
 : -23.8 | -14.2
- O=C(O)C[C@@H]1C=C[C@@H](NC(=O)c2ccccc2F)[C@@H](CO)O1
 : 12.6 | 10.2
- CCCNC(=O)[C@@H]1[C@@H](CO)[C@@H]2Cn3c(cccc3=O)[C@@H]2N1CCC(F)(F)F
 : 11.0 | 10.4
- CN1[C@@H]2c3ccc(-c4cccc(F)c4)c(=O)n3C[C@H]1[C@H](CO)[C@H]2C(=O)NCc1ccccc1
 : 10.0 | 8.3
- C[C@@H]1CN([C@@H](C)CO)C(=O)c2cccc(NC(=O)Nc3ccc(F)cc3)c2O[C@@H]1CN(C)S(=O)(=O)c1cccs1
 : -19.6 | -18.0
- C[C@H](O)C#Cc1ccc2c(c1)O[C@H](CN(C)Cc1ccccc1)[C@H](C)CN([C@@H](C)CO)S2(=O)=O
 : -2.0 | -7.6
- C[C@H](CO)N1C[C@H](C)[C@@H](CN(C)Cc2ccc(-c3ccccc3)cc2)Oc2ccc(NC(=O)CCN3CCOCC3)cc2CC1=O
 : ? | nt
- COCC#Cc1ccc([C@H]2[C@@H](CO)N3CCCCN(Cc4cccnc4)C[C@H]23)cc1
 : 12.6 | -2.1
- C[C@H](CO)N1C[C@H](C)[C@@H](CN(C)C)Oc2ccc(NC(=O)C3CC3)cc2CC1=O
 : 23.4 | 4.0
- CN1c2ccc(Br)cc2[C@H]2[C@H](CCN2C(=O)C2CCCCC2)[C@@H]1CO
 : -29.7 | -26.2
- C[C@@H]1CCCCO[C@@H](CN(C)Cc2ccc3c(c2)OCO3)[C@H](C)CN([C@@H](C)CO)C(=O)c2cc(NC(=O)NC3CCCCC3)ccc2O1
 : ? | nt
- C[C@H](CO)N1C[C@H](C)[C@H](CN(C)Cc2ccc(Cl)c(Cl)c2)Oc2c(NC(=O)NC3CCCCC3)cccc2C1=O
 : ? | nt
- CCC(=O)N1CC(=O)N2[C@H](CO)[C@H](c3ccc(C#CC4CCCC4)cc3)[C@H]2C1
 : ? | nt
- C[C@@H]1CN([C@H](C)CO)C(=O)c2cc(NS(=O)(=O)c3ccccc3)ccc2O[C@@H](C)CCCCO[C@H]1CN(C)C(=O)Nc1ccccc1
 : -33.1 | -34.0
- CCO[C@H]1OC(C(=O)O)=C[C@@H](c2ccc(Br)cc2)[C@@H]1CCCO
 : 18.8 | 8.7
- C[C@@H]1CN([C@@H](C)CO)C(=O)c2cccc(NS(C)(=O)=O)c2O[C@@H]1CN(C)CC1CC1
 : 7.5 | 4.3
- CN(C)CCCNC(=O)C[C@H]1C=C[C@@H](NC(=O)c2ccccc2F)[C@@H](CO)O1
 : 5.4 | 12.2
- COc1ccccc1C#Cc1cnc2c(c1)C(=O)N([C@@H](C)CO)C[C@H](C)[C@H](CN(C)C(C)=O)O2
 : 17.2 | 12.4
- CCS(=O)(=O)N1CCC2(CC1)CN(Cc1ccc3c(c1)OCO3)[C@@H](CO)c1[nH]c3cc(OC)ccc3c12
 : -13.3 | -5.2
- C[C@@H]1CN([C@@H](C)CO)C(=O)Cc2cc(NS(C)(=O)=O)ccc2O[C@H]1CN(C)S(=O)(=O)c1ccc(F)cc1
 : 6.1 | 8.2
- O=C(NCC[C@@H]1CC[C@H](NS(=O)(=O)c2cccc(Cl)c2)[C@H](CO)O1)c1cnccn1
 : -23.9 | -23.5
- COc1ccc(NC(=O)N(C)C[C@@H]2Oc3c(NC(=O)c4cc(C)nn4C)cccc3C(=O)N([C@@H](C)CO)C[C@H]2C)cc1
 : 16.6 | 5.4
- COc1ccc(NC(=O)Nc2ccc3c(c2)C(=O)N([C@H](C)CO)C[C@@H](C)[C@@H](CN(C)Cc2ccc(C(F)(F)F)cc2)OCCCC[C@H](C)O3)cc1
 : -31.9 | -24.2
- O=C(CC1CC1)N1CC2(C1)[C@@H](c1ccccc1)[C@@H](CO)N2C(=O)c1cnccn1
 : 8.1 | 0.3
- N#C[C@H]1[C@H](c2ccc(C#Cc3ccccc3F)cc2)[C@@H](CO)N1C(=O)C1CCOCC1
 : -24.3 | -14.2
- C[C@@H]1CN([C@@H](C)CO)C(=O)c2cc(NC(=O)C3CCCCC3)ccc2O[C@H]1CN(C)S(=O)(=O)c1ccc(Cl)cc1
 : -12.4 | -1.4
- Cc1ccc(S(=O)(=O)N[C@H]2CC[C@H](CC(=O)NCCCN(C)C)O[C@@H]2CO)cc1
 : 18.7 | 11.6
- O=C(C[C@@H]1C=C[C@H](NC(=O)Nc2ccc(F)cc2)[C@@H](CO)O1)NCc1cccc(F)c1
 : 1.6 | 1.9
- COc1ccc(S(=O)(=O)N(C)C[C@@H]2Oc3ccc(NS(=O)(=O)c4ccc(F)cc4)cc3CC(=O)N([C@H](C)CO)C[C@H]2C)cc1
 : 5.5 | 0.7
- C[C@H]1CN([C@@H](C)CO)S(=O)(=O)c2ccc(-c3ccc(C(=O)N(C)C)cc3)cc2O[C@H]1CN(C)C(=O)C1CCOCC1
 : 22.7 | 7.4
- Cc1ccccc1S(=O)(=O)NCC[C@@H]1CC[C@@H](NC(=O)Nc2cccc(F)c2)[C@@H](CO)O1
 : -34.1 | -21.6
- CO[C@@H](CN(C)S(=O)(=O)c1cn(C)cn1)[C@@H](C)CN(C(=O)Nc1ccc(C(F)(F)F)cc1)[C@H](C)CO
 : 9.2 | 8.1
- C[C@@H]1CN([C@H](C)CO)C(=O)c2cc(NS(=O)(=O)c3cccs3)ccc2O[C@@H]1CN(C)C(=O)Nc1ccccc1
 : 5.3 | -3.0
- CN1C(=O)c2cc(NC(=O)Cc3cccs3)ccc2OC[C@@H]2O[C@H](CC(=O)NCCCN3CCOCC3)CC[C@@H]21
 : 10.0 | 9.6
- O=C(NCC[C@H]1CC[C@@H](NS(=O)(=O)c2ccccc2)[C@@H](CO)O1)c1ccc2c(c1)OCO2
 : -1.5 | 7.7
- C[C@@H]1CN([C@@H](C)CO)C(=O)c2cc(NC(=O)Nc3cccc4ccccc34)ccc2O[C@@H](C)CCCCO[C@H]1CN(C)C(=O)NC1CCCCC1
 : 18.4 | 23.7
- C[C@H](CO)N1C[C@H](C)[C@H](CN(C)C(=O)Cc2ccncc2)Oc2cc(C#CC3CCCCC3)ccc2S1(=O)=O
 : ? | nt
- C[C@@H]1CCCCO[C@@H](CN(C)C(=O)NC2CCCCC2)[C@@H](C)CN([C@@H](C)CO)C(=O)c2cc(NC(=O)Nc3ccccc3)ccc2O1
 : 4.9 | 2.2

# Bioassay records (PubChem)
